AF4-AF9 inh: MLL-AF4/AF9 protein interaction inhibition; AlphaScreen, biotin-AF4 peptide binding to FLAG-AF9; P42568; AID 651704; inhibition, % at 10 µM; 0.47% of 350,000 active;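 active = every replicate reaching a set inhibition limit, whatever the replicate mean, cut at about 25% in these data; inconclusive = mean inhibition reaches that limit but some replicates miss it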;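 note: 0% = plate neutral control median and 100% = total signal loss; the record names both 10 and 1 µM as test concentration; the first replicate is given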
Target sequence (P42568 whole entry, looked up): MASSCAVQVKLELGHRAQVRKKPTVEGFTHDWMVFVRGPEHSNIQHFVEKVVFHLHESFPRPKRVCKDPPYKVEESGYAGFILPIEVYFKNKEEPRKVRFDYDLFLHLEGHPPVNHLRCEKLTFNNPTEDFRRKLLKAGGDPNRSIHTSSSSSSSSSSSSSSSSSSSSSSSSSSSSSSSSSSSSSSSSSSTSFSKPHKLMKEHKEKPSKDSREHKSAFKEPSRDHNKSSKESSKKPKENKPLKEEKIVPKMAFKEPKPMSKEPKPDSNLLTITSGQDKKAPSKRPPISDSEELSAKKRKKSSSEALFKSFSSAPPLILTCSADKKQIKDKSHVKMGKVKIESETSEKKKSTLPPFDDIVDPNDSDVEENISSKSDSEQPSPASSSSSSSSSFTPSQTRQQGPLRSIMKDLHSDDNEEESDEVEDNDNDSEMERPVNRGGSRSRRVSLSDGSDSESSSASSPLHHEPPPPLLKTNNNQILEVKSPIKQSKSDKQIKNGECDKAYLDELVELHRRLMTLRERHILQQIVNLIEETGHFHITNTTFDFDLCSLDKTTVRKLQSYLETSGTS
FGF22 binding: FGF22 (human) thermal shift binding; recombinant FGF22 thermal shift, SYPRO orange fluorescence; percent of sucrose octasulfate shift, DMSO zero; calls only at 9.99 µM; 1.5% of 340,000 active; AID 651658;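 active = melting point raised past a set limit in the mean and every replicate; inconclusive = no clear call; three in four hits are not shown here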
HNF4A DNA FP: change in binding of human HNF4 alpha to DNA; P41235; HNF4a-FITC DNA binding, fluorescence polarization, 1 h; activity change, % at 10 µM; 0.3% of 360,000 active; AID 1224865; in the data active = activity change above about 30%, passing the limit was not always enough;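 note: controls were the assay level and a saturating level of protein; the project sought stronger binding though the title names inhibitors; some compounds called inactive have numbers as strong as hits; positive values seem to mean higher polarization but the record does not say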
Target sequence (P41235 whole entry, looked up): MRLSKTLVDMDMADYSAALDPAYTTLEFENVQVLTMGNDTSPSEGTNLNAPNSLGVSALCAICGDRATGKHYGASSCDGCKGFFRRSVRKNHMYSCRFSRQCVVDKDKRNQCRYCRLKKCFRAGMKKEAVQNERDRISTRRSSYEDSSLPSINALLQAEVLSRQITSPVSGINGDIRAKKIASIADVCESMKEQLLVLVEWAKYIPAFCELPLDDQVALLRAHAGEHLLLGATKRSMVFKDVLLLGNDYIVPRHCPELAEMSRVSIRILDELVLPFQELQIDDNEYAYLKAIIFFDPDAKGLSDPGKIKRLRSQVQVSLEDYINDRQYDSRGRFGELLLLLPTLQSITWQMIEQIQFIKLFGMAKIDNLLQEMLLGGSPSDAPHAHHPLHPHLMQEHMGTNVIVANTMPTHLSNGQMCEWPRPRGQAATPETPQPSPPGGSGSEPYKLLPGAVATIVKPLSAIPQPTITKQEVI
Vif A3G: inhibitors of Vif binding to APOBEC3G peptide, primary screen, biochemical, TR-FRET, GST-Vif 1-94, biotin-A3G peptide, dose response retest (AID 1117319) | 0.57% of 260,000 active | one-dose inhibition, %; IC50 in µM for titrated hits | TR-FRET GST-Vif / biotin-A3G peptide binding; higher % means a stronger effect; test concentration not given here; strong numbers were not always called active;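 active = above the screen mean plus three standard deviations and confirmed in dose response; inconclusive = results disagree or hit not tested in dose response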;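 note: Vif residues 1-94 fused to GST binding biotinylated APOBEC3G peptide 110-148; 0% = full assay without inhibitor and 100% = GST in place of GST-Vif; retest series ran down from 100 µM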
ALR inh: inhibitors of human sulfhydryl oxidase ALR. P55789. purified ALR, DTT oxidation, H2O2 HRP-luminol luminescence. inhibition, % (no concentration beside the values). 3.8% of 290,000 active;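 active = mean and each replicate at 75% or more; inconclusive = only one of the two met; inactive = neither met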;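 note: stock transfer was 7.5 nL into about 7.5 µL; 0% = neutral wells and 100% = wells with inactivated enzyme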
Ecoli rRNA inh: inhibitors of bacterial rRNA selective over humanized ribosomes | 1.6% of 350,000 active | GFP signal change (wild-type ribosome), % (no concentration beside the values) | E. coli WT GFP vs humanized-ribosome RFP mutants, fluorescence, 24 h; hits give low values; DMSO median 0, no signal -100;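 active = significant combined selectivity score with lowered wild-type GFP, culture density cut under 30%, mutant RFP and density less affected; inactive = any of these conditions unmet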; note: one replicate is shown; some compounds called inactive have numbers as strong as hits
Ecoli growth: E. coli growth inhibition. Escherichia coli growth, OD600, 23 h; hits give low values. OD600 absorbance (test concentration not listed). 0.21% of 330,000 active. AID 1053175;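 active = OD600 absorbance below the run mean of sample wells minus 3.6 SD, in any replicate, cut at about 0.56 in these data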;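 note: stock transfer was 300 nL into about 60 µL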
Ecoli rRNA inh OD600: second read-out of Ecoli rRNA inh, no call of its own (marks repeat the call); OD600 change, %; measured here: OD600 growth;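 optical density of the mix in the first replicate; 0 = DMSO median and -100 = no signal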
Ecoli rRNA inh RFP: further read-out of Ecoli rRNA inh, marked with its call; RFP signal change, %; measured here: RFP humanized mutant strains;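 first replicate; 0 = DMSO median and -100 = no signal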
* hit, by the source's call; i = inactive; ? = inconclusive; / = not tested or not shown.

Value order – Ecoli growth, Ecoli rRNA inh RFP, Vif A3G, Ecoli rRNA inh, Ecoli rRNA inh OD600, FGF22 binding, HNF4A DNA FP, ALR inh, AF4-AF9 inh
> C=CC[C@@H](CC(=O)N(CCO)Cc1ccccc1)C(=O)N[C@@H](COC(=O)[C@@H](CC=C)Cc1ccc(F)cc1)Cc1ccccc1
    /, -0.4, /, 15, 5, i, 2.3, 0, 2.6
> COc1cccc(S(=O)(=O)Nc2ccc3c(c2)[C@@H]2C[C@@H](CC(=O)NCCc4ccccc4)O[C@H](CO)[C@@H]2O3)c1
    /, -1.1, /, -6, -30, i, /, /, 1.0
> C[C@H]1CN([C@@H](C)CO)S(=O)(=O)c2ccc(C3=CCCC3)cc2O[C@H]1CN(C)C(=O)CN(C)C
    /, -2.1, /, 4, 12, i, /, /, -35
> CCOC(=O)C(=Cc1ccccc1OC)C(=O)OCC
    /, -3.6, -2%, -2, -6, i, -2.3, 13, 1.7
> Cc1cc(C)nc(NS(=O)(=O)c2ccc(NC(=O)c3ccc(O)cc3O)cc2)n1
    0.65, -3.4, -5%, -8, -7, i, 2.2, 99*, -1.0
> C[C@@H]1CN([C@@H](C)CO)C(=O)c2cc(-c3ccncc3)cnc2O[C@@H]1CN(C)C(=O)c1ccncc1
    /, 0.2, /, 3, -1, i, /, /, -5.5
> Cc1ccc2[nH]c(=O)c(CN(Cc3ccc4c(c3)OCO4)Cc3nnnn3Cc3ccco3)cc2c1
    0.71, /, ?, /, /, /, -5.0, 2, /
> CN(C)c1ccc(CNc2ncc(Br)cc2Br)cc1
    0.71, /, -4%, /, /, /, -2.1, 49, /
> CC1=Nc2ccc3ccccc3c2C1(C)C
    0.62, 2.1, 0%, 18, 3, i, 8.5, -18, -3.9
> O=C(COC(=O)c1c[nH]c2ccccc12)NC1CCCC1
    0.72, 4.4, /, 0, 0, i, 1.9, -3, 1.9
> CCNC(=O)Nc1ccc2c(c1)C(=O)N(C)[C@@H]1CC[C@@H](CC(=O)NC3CCCCC3)O[C@@H]1CO2
    /, -3.9, /, 6, 7, i, /, /, -1.0
> COc1cc2cc(C(=O)NCCc3c[nH]c4ccccc34)c(N)nc2cc1OC
    /, -5.9*, /, -31*, -22*, i, 119, /, 1.7
> C[C@@H]1CN([C@@H](C)CO)C(=O)c2cc(NC(=O)Nc3ccc4c(c3)OCO4)ccc2O[C@@H](C)CCCCO[C@H]1CN(C)Cc1ccc(Cl)c(Cl)c1
    /, -4.4, /, -4, 6, i, /, /, 1.0
> CC(/C=N/NC(=O)c1cc(C2CC2)[nH]n1)=C\c1ccccc1
    /, -1.8, /, 4, -1, i, -3.6, -12, /
> CN(C)C(=S)Nc1ccc2c(c1)OCCO2
    0.68, -0.8, /, 19, 14, i, 8.3, 7, -2.7
> COc1ccc(-c2nnc(SCC(=O)Nc3nncs3)o2)cc1
    0.7, 1.0, 0%, 4, 7, i, -0.2, 6, 1.2
> COc1ccc(N2CC(C(=O)Nc3nnc(SCc4ccccn4)s3)CC2=O)cc1 (centres undefined)
    0.67, -3.4, /, -14, -13, i, 3.1, -6, -4.1
> COc1ccc(C(C#N)c2cnccn2)cc1OC (centres undefined)
    0.69, -12, /, 3, -2, i, 0.7, 27, 0.6
> CCCCN(C)C(=O)c1sc(=O)n(Cc2c(C)cccc2C)c1C
    /, -12, /, -17, -22, i, -1.7, /, 7.9
> CC(=O)N1CCN(c2ccc(N)cc2)CC1
    0.67, -6.1, /, -2, 8, i, -28, 99*, -4.1

Continued:
Value order – Ecoli growth, Ecoli rRNA inh RFP, Vif A3G, Ecoli rRNA inh, Ecoli rRNA inh OD600, FGF22 binding, HNF4A DNA FP, ALR inh, AF4-AF9 inh
> C[C@@H]1CN([C@H](C)CO)C(=O)c2cc(NC(=O)Cn3cnnn3)ccc2O[C@H]1CN(C)C(=O)Nc1ccc(C(F)(F)F)cc1
    /, -0.1, /, 2, -4, i, /, /, -5.9
> CC(C)(C)OC(=O)N/N=C\C=C\c1ccc2c(c1)OCO2
    /, -0.6, /, 8, 5, i, 3.4, 21, 0.6
> O=C(C[C@@H]1C[C@@H]2c3cc(NC(=O)NC4CCCC4)ccc3O[C@@H]2[C@H](CO)O1)NCCN1CCCCC1
    /, -3.4, /, 4, 16, i, /, /, 2.2
> O=C(CCl)N1CCN2C(=O)c3ccccc3C12c1ccc(Cl)cc1 (centres undefined)
    0.71, -8.5, 3%, 3, 8, i, 3.8, 34, -0.7
> CCCNC(=O)Nc1ccc2c(c1)OC[C@H](C)N(Cc1ccncc1)C[C@@H](C)[C@@H](OC)CN(C)C2=O
    /, 2.1, /, -6, -5, i, /, /, 0.5
> C[C@@H]1CN([C@H](C)CO)C(=O)c2cc(C3=CCCC3)cnc2O[C@H]1CN(C)C(=O)CN1CCOCC1
    /, -4.3, /, 8, 14, i, /, /, -3.2
> COc1ccc(CNC(=O)c2c(C)oc3c2C(=O)c2ccccc2C3=O)cc1
    0.71, -11, 16%, -32, -41, i, -1.9, -52, -3.1
> CCC(=O)NC(c1ccc([N+](=O)[O-])cc1)c1c(O)ccc2ccccc12 (centres undefined)
    0.64, /, 2%, /, /, /, 1.4, -26, /
> O=C(COc1coc(CN2CCCc3ccccc32)cc1=O)Nc1cccc([N+](=O)[O-])c1
    0.71, 19, 2%, -5, 28, i, 7.8, -1, -1.7
> NS(=O)(=O)c1ccc(CCNC(=O)c2cnc(Cl)c(Cl)c2)cc1
    0.69, 5.1, /, 4, -24, i, -1.7, -1, -1.6
> COCCNC(=O)C[C@H]1CC[C@H](NC(=O)NC2CCCC2)[C@H](CO)O1
    /, 1.3, /, 4, 6, i, /, /, 0.0
> O=C(NCCNC(=O)c1cnccn1)c1cccc(Cl)c1
    0.64, 0.1, /, 2, 5, i, -0.3, 2, -1.7
> Cc1ccc(CNC(=O)C2CCN(c3nc(C)cc(C)n3)CC2)cc1
    0.7, 0.2, /, 4, 4, i, 4.0, -3, 1.6
> CCc1cc(=O)oc2cc(C)c3c(C)coc3c12
    0.73, /, -1%, /, /, /, 2.7, /, /
> CCCSc1nc(O)c(C2OC(=O)c3c2ccc(OC)c3OC)c(=O)n1-c1ccccc1 (centres undefined)
    0.76, /, 4%, /, /, /, 0.5, 8, /
> CCn1c(Sc2nc(C)nc3scc(-c4cccs4)c23)n[nH]c1=O
    0.68, /, 0%, /, /, /, -1.4, -10, /
> COCCCN1C(=O)C(CC(=O)NCCN2CCOCC2)CC(C(=O)N2CCCCCC2)=C1C (centres undefined)
    /, /, /, /, /, i, -1.9, /, 0.7
> COc1ccc(C(=O)NCCc2c[nH]c3ccccc23)cc1S(=O)(=O)N1CCCCC1C (centres undefined)
    0.68, 8.8, 4%, 0, -15, i, -1.4, -1, 2.0
> CCOC(=O)C1=CCN(S(=O)(=O)c2ccccc2F)C1c1cccc(Br)c1 (centres undefined)
    /, -10, /, -9, -24, i, 1.9, /, -4.2
> c1ccc2c(-c3nc(C4CCCCC4)no3)cc(-c3ccncc3)nc2c1
    0.69, /, 4%, /, /, /, -2.1, -19, /

Complete entries from above. Order of screens: Ecoli growth, Ecoli rRNA inh RFP, Vif A3G, Ecoli rRNA inh, Ecoli rRNA inh OD600, FGF22 binding, HNF4A DNA FP, ALR inh, AF4-AF9 inh
C[C@@H]1CN([C@H](C)CO)C(=O)c2cc(C3=CCCC3)cnc2O[C@H]1CN(C)C(=O)CN1CCOCC1 in the list: /, -4.3, /, 8, 14, i, /, /, -3.2
NS(=O)(=O)c1ccc(CCNC(=O)c2cnc(Cl)c(Cl)c2)cc1 in the list: 0.69, 5.1, /, 4, -24, i, -1.7, -1, -1.6

The listing continues.
Value order – Ecoli growth, Ecoli rRNA inh RFP, Vif A3G, Ecoli rRNA inh, Ecoli rRNA inh OD600, FGF22 binding, HNF4A DNA FP, ALR inh, AF4-AF9 inh
> CSc1ccc(/C=C(\NC(=O)c2ccccc2)C(=O)NN)cc1
    0.7, -1.4, 3%, 8, 10, i, 3.8, 1, 2.3
> C=CCn1c(SCC(=O)Nc2ccc(N(C)C)cc2)nnc1-c1cccc(C)c1
    0.68, /, 7%, /, /, /, 1.8, 34, /
> CC(C)(C)c1ccc(C(CC(=O)O)NC(=O)Cc2ccc(Cl)cc2)cc1 (centres undefined)
    0.67, -2.0*, 4%, -24*, -11*, i, 1.1, 7, -7.5
> C[C@@H]1CN([C@H](C)CO)C(=O)Cc2cc(NC(=O)Nc3ccc(C(F)(F)F)cc3)ccc2O[C@@H]1CN(C)Cc1ccccc1
    /, 7.6, /, 6, -13, i, /, /, 4.3
> O=C(CCNC(=O)c1ccccc1Cl)Nc1cc(S(=O)(=O)N2CCOCC2)ccc1N1CCCC1
    0.69, -5.8, 1%, 3, 5, i, -2.6, -6, -14
> COCCn1c(SCc2ccccc2F)nc2ccccc2c1=O
    0.69, -10.0, /, -22, -37, i, 0.1, 6, -0.7
> CCn1c(=O)c2cc(C(=O)N(C)c3cc(C)ccc3OC)sc2c2ccccc21
    0.71, -1.0, -1%, -15, -8, i, 1.9, 14, -12
> Nc1nc(N)c(N=Nc2ccc(C(=O)O)cc2)c(N)n1
    0.67, -2.6, /, 13, 16, i, -0.8, 0, -11
> CN(C)CC(=O)Nc1ccc2c(c1)[C@H]1C[C@H](CC(=O)NCc3cccc(F)c3)O[C@@H](CO)[C@H]1O2
    /, 1.3, /, -2, -6, i, /, /, 2.2
> CCn1c(O)c(N=NC(=O)Cn2ccc(C(F)(F)F)n2)c2ccccc21
    0.72, 1.6, 26%, 1, 4, i, -4.0, -1, 1.7
> CCOC(=O)[C@@H]1[C@H]2COc3ccc(Br)cc3[C@H]2N2C(=O)N(c3ccc(OC)cc3)C(=O)[C@]12C
    0.83, -6.3, /, 3, -3, i, -2.4, -7, -6.4
> CC1Cc2cc(S(=O)(=O)NCCC(=O)NCc3ccc(F)cc3)ccc2N1C(=O)C1CC1 (centres undefined)
    0.65, -1.5, /, 0, 7, i, 1.1, -3, -24
> CCCCCCCC[n+]1cccc2c3ccccc3ccc21
    0.48*, -30, 13%, -56, -82, i, 0.9, -2, 0.9
> Cc1cc(OCc2ccc(C(=O)NN=C3CCCC3)cc2)ccc1Cl
    0.64, -8.3, -9%, -34, -35, i, -1.9, -9, 0.6
> CCOc1ccc(N(C(=O)c2snc(C(N)=O)c2N)C(C)C(=O)NC2CCCCC2)cc1 (centres undefined)
    0.67, -0.2, /, -1, 2, i, 1.7, 2, -0.2
> Cc1ccc(-n2c(Cl)c(Cl)nc(Cl)c2=O)cc1
    0.61, /, 5%, /, /, /, 0.0, 97*, /
> CCC1(C)Cc2[nH]c(=O)c(C#N)cc2CO1 (centres undefined)
    0.67, 1.8, -11%, 22, 22, i, -5.7, -1, -0.2
> COc1ccc(NC(=O)Nc2ccc3c(c2)CC(=O)N([C@H](C)CO)C[C@@H](C)[C@H](CN(C)C(=O)Nc2ccc(OC)cc2)O3)cc1
    /, -1.3, /, 5, 4, i, /, /, 0.2
> CCc1nnc2cccc(Cl)n12
    0.68, 2.0, -1%, 9, 5, i, -2.3, -3, -1.1
> COc1ccc(/C(C)=N/NC(=O)c2ccncc2)cc1
    /, -2.8, /, -4, 0, /, -2.9, /, -2.9
> Cc1ccn2c(C(C)O)nnc2c1 (centres undefined)
    /, 0.5, 3%, 9, 18, i, -2.6, /, -3.4

This is a subset; the hit share may differ from the screen's.
